Assay outcomes (PubChem BioAssay)
Mtb hypoxia inh: reduces hypoxia-regulated biosensor signal in M. tuberculosis. M. tuberculosis hypoxia-regulated fluorescent reporter, fluorescence. fluorescence inhibition, % (concentration not given with the values). 300,000 compounds, 0.1% hits. AID 1159583;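 active means 35 to 45% if threefold the growth effect, above 45% if 1.5-fold the growth effect; inactive means the rest, general growth blockers included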;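 further: wells of about 50 µL received 100 nL stock; 0% = vehicle wells and 100% = reference inhibitor wells; whole bacteria with a GFP reporter of the hypoxia response; strong numbers were not always called active; many hits fall short of the cut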
ugtP null kill: kills S. aureus RN4220 lacking UgtP; S. aureus RN4220 ugtP deletion, OD600 growth, 16 h; some inactives read as strong as hits; growth inhibition, % (no concentration beside the values); 330,000 compounds, 0.54% hits;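 active means z-score under -3 and OD600 up to 0.15 on both plates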;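 further: plate controls were untreated wells for no effect and antibiotic for full effect; wells of about 80 µL received 100 nL stock; the first replicate is given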
Autofluor counter: compound fluorescence in toxin protease inhibitor counterscreen. compound autofluorescence counterscreen, microsphere flow cytometry; active compounds read high. fluorescence intensity (test concentration not listed). 360,000 compounds, 3.1% hits;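 active means at least 3 SD above the mean of all compounds, about 16000 in these data; inconclusive means too few beads counted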;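 further: 100 nL of 1 mM stock went into each well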
BJeLR lethal: kills HRASV12-expressing BJeLR cells; BJeLR (HRASV12) viability, CellTiter-Glo ATP luminescence, 48 h; reference of the scale not given here; AID 1554; 300,000 compounds, 0.17% hits; inhibition, % (no concentration beside the values);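 active means replicate mean above 50%; inconclusive means above 50% but judged a plate artefact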;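 further: 50 nL library stock added to about 25 µL; numbers are from one replicate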
RN4220 kill: kills Staphylococcus aureus RN4220 | AID 1259311 | S. aureus RN4220 growth, OD600, 16 h | inhibition, % (test concentration not listed) | 330,000 compounds, 0.33% hits;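 active means z-score of -3 or lower and OD600 up to 0.18 on both plates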;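 further: plate controls were untreated cells for no effect and reference antibiotic for full effect; stock transfer was 100 nL into about 80 µL; one replicate is shown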
PrP UTR inh: suppresses PrP 5' UTR mRNA reporter expression | cell-based PrP 5' UTR mRNA reporter, plate reader | inhibition, % (test concentration not listed) | 340,000 compounds, 0.35% hits;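 active means every replicate at 50% or more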;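 further: 0 = median of the neutral control wells; tested in H4 reporter cells; numbers are from one replicate; inactives centre near -14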
Mtb hypoxia inh growth: also measured in Mtb hypoxia inh; calls as there; growth inhibition, %; measured here: M. tuberculosis growth (absorbance);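 0% = vehicle and 100% = reference antibiotic; read after six days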
An asterisk follows results filed as active; ? = inconclusive; / = not tested or not shown.

Molecule	Mtb hypoxia inh	Mtb hypoxia inh growth	ugtP null kill	Autofluor counter	BJeLR lethal	RN4220 kill	PrP UTR inh
Oc1c(C(Nc2cccc(C(F)(F)F)c2)c2ccncc2)ccc2cccnc12 (stereo unspecified)	-1	9	15	3346	3	10	-9
N#Cc1nc(-c2ccccc2F)oc1NC1CCCCC1	/	/	2	6274	-6	1.1	-2
CCOc1ccccc1NC(=O)NNS(=O)(=O)c1cc(OC)ccc1OC	-3	-5	7	6004	-4	3.9	-9
CN(CC(=O)Nc1ccccc1C(F)(F)F)C(=O)C1CCN(C(=O)c2ccc(Cl)cc2)CC1	-2	-14	9	6607	4	1.7	0
Cc1cccc(C(=O)NCc2nnc(SCC(=O)N3CCN(c4ccccc4)CC3)n2C)c1	-3	-1	7	5252	-5	3.0	-25
O=C(NNC(=O)c1ccccc1[N+](=O)[O-])c1ccccn1	-9	-13	-5	9274	4	8.4	-10
O=C(O)Cc1ccc(NC(=O)c2ccc(NC(=O)c3ccco3)cc2)cc1	-3	6	-7	9823	3	2.7	-27
Nc1c(C(=O)CSc2n[nH]c(-c3ccccc3)n2)c(=O)[nH]c(=O)n1C1CC1	8	2	8	?	/	-0.7	1
CCOC(=O)CSc1nnc2n1C(C)(C)Cc1ccccc1-2	-2	-2	7	16513*	3	8.4	-11
CCCCN1C(=O)c2ccccc2C1C(=O)NC1CCCC1 (stereo unspecified)	7	4	2	22700*	5	3.5	-12
O=C(Nc1nnc(C2CC2)s1)C1COc2ccccc2O1 (stereo unspecified)	-3	12	-9	3269	4	0.0	-4
Cc1ccc(C)c(NC(=O)CSc2nc3c(c(=O)n2C)SC(C)C3)c1 (stereo unspecified)	5	8	14	4128	12	8.2	-21
CC1(C)OC2CC3C4CCC5=CC(=O)CC[C@]5(C)[C@@]4(F)C(O)C[C@]3(C)[C@]2(C(=O)CCl)O1 (stereo partly specified)	-1	4	1	/	/	9.7	/
Cn1cc([N+](=O)[O-])c(C(=O)NC2CCCCCCC2)n1	/	/	/	3983	4	/	-4
CC(=O)Nc1cccc(NC(=O)CS(=O)(=O)c2cn(CC(=O)N3CCOCC3)c3ccccc23)c1	13	16	7	4190	0	-0.5	-6
COC(=O)c1cccc(NC(=O)Cc2ccc(OC)cc2)c1C	9	19	-1	4016	4	2.1	-6
Cc1nn(C)c(C(=O)NN=Cc2ccc(-c3ccccc3)cc2)c1Cl	9	10	0	/	/	7.3	/
CCCCc1c(O)nc(SCC(=O)N2CCCCC2)n(-c2ccccc2C)c1=O	4	5	-3	8988	7	1.5	-24
CCn1ncc(S(=O)(=O)Nc2cccnc2)c1C	8	6	12	6051	-8	5.0	5
O=C(CCl)Nc1cccc(S(=O)(=O)NC2=NCCC2)c1	20	14	8	4868	5	2.7	-38
CC1CN(C(=O)c2ccccc2Sc2ccccc2C#N)CC(C)O1 (stereo unspecified)	10	11	3	4299	-6	3.0	-15
CNC(=O)N(O)C1N(/N=C/c2ccc(N(C)C)cc2)C(=S)SC1(C)C (stereo unspecified)	/	/	/	3805	7	/	-15
Cc1ccc(C(C)NC(=O)c2cc3cc(Br)ccc3oc2=N)cc1 (stereo unspecified)	3	11	-4	5851	-4	0.8	-7
COc1ccc(CCNc2nc3c(c(=O)n(C)c(=O)n3C)n2C)cc1OC	6	11	1	5852	-2	2.6	-11
O=C(CSc1ccc(Cl)cc1)Nc1ccc(N2CCN(c3ccccc3)CC2)c(F)c1	/	/	1	4226	15	2.5	-20
COc1cccc(C(=O)Nc2cccc(NC(=O)c3cccs3)c2)c1	15	2	-3	3840	-5	14	-25
COC(=O)C(Cc1ccc(O)cc1)NC(=O)CCc1nc2ccccc2s1 (stereo unspecified)	-1	2	-1	4424	-2	-1.2	-24
COc1ccc(CC(=O)N2CCc3ccccc3C2)cc1	8	-3	7	2965	-3	3.7	-14
COc1ccc(S(=O)(=O)c2snnc2C)cc1	20	0	2	4276	-7	4.7	-7
c1cnc2c(OCc3nc4ccccc4[nH]3)cccc2c1	19	6	3	9966	-7	11	-103
COc1cccc(C2NC(C)(C(=O)O)C3C(=O)N(C(C)C)C(=O)C23)c1O (stereo unspecified)	/	/	1	5445	2	3.0	-8
Cc1ccc(NC(=O)CN(C)C(=O)COc2c(Cl)cc(Cl)c3ccc(C)nc23)cc1	-2	-5	-8	2763	-9	15	-1
CCN(CC)c1ccc(/C=N/NC(=O)c2cccc(S(=O)(=O)Nc3ccccc3OC)c2)cc1	/	/	/	2214	-3	/	-18
Nc1ncc(Br)cc1S(=O)(=O)NCCC(=O)N1CCN(c2ncccn2)CC1	3	2	1	10218	-4	3.6	-14
CC1CN(C(=O)c2cccc(S(=O)(=O)Nc3ccc(Cl)cc3)c2)CC(C)O1 (stereo unspecified)	6	2	2	3466	1	4.6	-44
O=C(COC(=O)c1cc(=O)c2ccccc2o1)NC1CCCC1	8	0	1	2620	-2	8.7	-26
CN(C)CCn1c(NCc2ccc3c(c2)OCO3)nc2ccccc21	12	3	6	3334	-4	1.1	-17
COc1ccc(CC(=O)Nc2cccc(-c3cn4ccccc4n3)c2)cc1	7	9	-3	2372	-19	5.9	-34
COc1cc(S(=O)(=O)NCc2ccccc2)ccc1-n1cnnn1	-10	4	2	5601	-12	3.7	-9
COc1ccccc1NC(=O)N1CCCC(C(=O)Nc2cccc(C)c2C)C1 (stereo unspecified)	8	7	-1	8686	4	1.4	-2
C=CCNC(=O)CN1c2cccc3cccc(c23)S1(=O)=O	-6	7	-5	3532	1	2.1	-5
Cc1ccc(N(Cc2ccccc2)C(=O)c2cccc(S(=O)(=O)N3CCN(C)CC3)c2)cc1	6	-2	4	5423	-9	4.9	-34
Cn1ncc2c(NNC(=O)c3ccc(Cl)c(Cl)c3)ncnc21	18	24	-3	10841	3	1.3	-16
Cn1nc(C(=O)OCC(=O)Nc2ccc(SC(F)F)cc2)c2ccccc2c1=O	-5	9	0	3754	/	-4.8	-4
O=C(CCNC(=O)c1ccco1)Nc1ccc(Cl)cc1F	-12	-6	7	5056	-8	0.0	-6
O=C(NC(=S)NC1CCSC1=O)c1ccccc1F (stereo unspecified)	4	-2	13	1967	-5	-1.1	-24
CCOc1ccc(NC(=O)C(CC)n2nc(C)c3c(C)n(-c4ccccc4)nc3c2=O)cc1 (stereo unspecified)	16	8	12	6374	-6	-3.6	-4
COc1ccc(S(=O)(=O)N2CCOC2CNC(=O)C(=O)NCCc2ccccc2)cc1OC (stereo unspecified)	2	2	-2	6737	-21	-12	-7
COc1ccc(OC)c(NC(=O)CC2C(=O)NCCN2C(=O)Nc2cccc(Cl)c2)c1 (stereo unspecified)	-14	-15	-2	10208	-9	-1.6	-12
NNC(=O)CC1=NNC(=O)C1	-5	-3	-4	3143	/	-2.0	-2
Cc1ccc(OCC(O)CN2C(=O)NC(C)(C)C2=O)cc1C (stereo unspecified)	/	/	-4	4604	7	10	-21
COc1ccc(CNC(=O)CN(C(=O)Cn2nnc(-c3ccccc3F)n2)c2ccc(C)cc2)cc1	6	2	10	4256	1	-0.9	-7
Cc1nn(C)cc1C=NNC(=O)c1csc2c1CCCC2	4	7	-1	/	/	0.0	/
CN(C)CCCn1c(=O)n(Cc2ccccc2)c(=O)c2c3c(sc21)CCCCC3	/	/	2	3960	-10	-5.8	-5
C[C@]12C[C@H](O)[C@@H](O)CC1=CCC1C2CC[C@@]2(C)C1CC[C@@H]2O (stereo partly specified)	7	3	3	3708	/	2.7	-10
COc1cccc(CNC(=O)Cn2c(=O)oc3cc(S(=O)(=O)N4CCCCC4)ccc32)c1	-10	-5	0	5041	2	-0.3	-7
Cc1ccc2nc(SCc3ccccc3)c(C=O)c(=O)n2c1	-3	1	3	2019	2	-1.9	-4
CCOC(=O)c1c(NC(=O)CSc2nnc3ccccn23)sc2c1CCC2	12	5	11	4248	2	4.4	-24
O=C(NCCN1C(=O)S/C(=C\c2ccc(Cl)c(Cl)c2)C1=O)C1COc2ccccc2O1 (stereo unspecified)	4	2	2	4317	-1	3.0	-18
CCN1N=C(C)C=C(c2ccccc2)n2c1nc1ccccc12	5	-5	2	4157	4	5.0	-11

Overlap with the part before: two entries, then new ones.
Molecule	Mtb hypoxia inh	Mtb hypoxia inh growth	ugtP null kill	Autofluor counter	BJeLR lethal	RN4220 kill	PrP UTR inh
O=C(NCCN1C(=O)S/C(=C\c2ccc(Cl)c(Cl)c2)C1=O)C1COc2ccccc2O1 (stereo unspecified)	4	2	2	4317	-1	3.0	-18
CCN1N=C(C)C=C(c2ccccc2)n2c1nc1ccccc12	5	-5	2	4157	4	5.0	-11
CCNCCNC(=O)c1c(O)c2c([nH]c1=O)CCCC2	-1	7	-6	9038	6	6.6	0
CCNC(=O)COc1cc(C)c(Cl)c(C)c1	10	6	1	4176	-4	14	-18
CC(Oc1cccc(Cl)c1)C(=O)Nc1ccc(S(=O)(=O)Nc2ncccn2)cc1 (stereo unspecified)	8	9	1	/	2	8.8	-21
CCc1n[nH]c(=O)c2cc3cc(OC)ccc3n12	2	3	0	3603	10	2.0	-10
O=C(NCCC1=CCCCC1)c1c(O)nc2sccn2c1=O	6	2	6	5526	-9	5.6	-11
COC(=O)c1cc(OC)c(OC)cc1NCC(=O)Nc1ccc(C)cc1	16	4	2	10659	-10	24	-15
Cc1ccc(-n2[nH]c(C)c(C=Nc3ccc(S(=O)(=O)Nc4nccs4)cc3)c2=O)cc1	/	/	44	/	43	6.8	/
COc1ccccc1N1CCN(C/C(C)=C/c2ccccc2)CC1	4	5	18	11212	-8	0.1	-10
O=C(COC(=O)CNC(=O)c1ccccc1)Nc1ccc(Cl)cc1C(F)(F)F	9	12	1	6743	-3	5.2	-23
O=C(COC(=O)c1ccco1)NC(c1ccccc1)c1ccccc1	9	7	8	3486	3	2.4	-23
CNC(=O)NC(=O)CSc1ccc(S(=O)(=O)N(C)C2CCCCC2)cn1	-3	-10	1	/	/	0.8	-1
CCCCn1c(N)c(N(CCOC)C(=O)CC(NC(=O)c2ccccc2)c2ccccc2)c(=O)[nH]c1=O (stereo unspecified)	-1	5	4	?	7	2.5	-12
Cc1cc(C(=O)N2CCN(Cc3ccc4c(c3)OCO4)CC2)on1	15	7	7	5346	-10	3.0	-30
CC(NC(=O)C(=O)NN=Cc1ccc(Cl)cc1)c1ccccc1 (stereo unspecified)	-7	-6	3	/	/	6.5	/
COc1cccc2cc(C(=O)Nc3ccccc3C)c(=NNS(=O)(=O)c3ccccc3)oc12	5	6	0	/	/	2.8	/
Cc1cc(C)nc(N/N=C/C2=C(O)CC(c3ccccc3)CC2=O)n1 (stereo unspecified)	8	9	1	/	0	0.2	/
S=C(NCc1cccs1)Nc1ccc(Br)cc1Cl	17	13	2	4064	2	2.0	-21
O=C(OCc1ccc([N+](=O)[O-])cc1)c1cc(S(=O)(=O)N2CCCCC2)ccc1N1CCOCC1	8	13	0	/	-11	1.7	-11
CCCC(=O)N1c2ccccc2NC2=C(C(=O)CCC2)C1c1ccc(F)cc1 (stereo unspecified)	3	0	2	6493	-11	4.8	-18
CCN(CC)C(=O)Cn1cc(C(=O)C(=O)NCCCN2CCOCC2)c2ccccc21	3	2	-2	5713	-2	-0.9	-22
COCc1c(C(=O)NN=Cc2ccco2)nnn1-c1nonc1N	10	2	2	/	/	0.5	/
CCn1cc([N+](=O)[O-])c(C(=O)Nc2ccn(C34CC5CC(CC(C5)C3)C4)n2)n1	-2	12	-3	2127	4	3.6	-14
Cc1cc2nc(N=C(N)N)nc(C)c2cc1C	-7	-18	10	2676	/	-1.9	-16
CCN(CC)Cc1c(C(=O)N/N=C/c2cccnc2)nnn1-c1nonc1N	/	/	/	3722	-1	/	-19
COC(=O)c1sc(NC(=O)c2cnccn2)c(C(=O)OC)c1C	9	7	11	/	3	6.6	/
O=C(NN=Cc1cn(Cc2ccccc2)c2ccccc12)c1ccncc1	/	/	3	/	/	2.6	/
